# Bioassay records from PubChem.
# CtBP-E1A blk = qHTS Assay for Inhibitors of the CtBP/E1A Interaction | 340,000 tested, 0.49% active | AlphaScreen GST-E1A/His-CtBP binding, 1536-well; active compounds read low; control for the full effect not named in the record | activity change, % (concentration not given with the values) | CtBP / adenovirus E1A interaction (AlphaScreen) | AID 651724, 2012; in the data active means activity change below about -65%; inconclusive means about -30% to -65%; inactive means above about -30%; further: on the % scale 0 is the no-effect control and ±100 the full control effect
#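 In 5 uL wells, 23 nL compound meets equimolar GST-E1A and His-CtBP (5X stock 125 nM each) for 2 h, 37 °C. Beads (5X, 50 ug/mL) then 1 h, 37 °C, dark.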
# D2 agonist = Beta-Arrestin HTS for Positive Allosteric Modulators of the Human D2 Dopamine Receptor: Agonists; D(2) dopamine receptor (Homo sapiens), P14416; DiscoveRx PathHunter D2 beta-arrestin, luminescence, 90 min; 100% = 57 uM dopamine signal; activation, % (test concentration not listed); 360,000 tested, 0.084% active; in the data active = activation above about 40%; inconclusive = about 15% to 40%; inactive = below about 15%; further: compound concentration not given in the record; the text of the record calls up to 30% inactive
# Target sequence (P14416 whole entry, looked up): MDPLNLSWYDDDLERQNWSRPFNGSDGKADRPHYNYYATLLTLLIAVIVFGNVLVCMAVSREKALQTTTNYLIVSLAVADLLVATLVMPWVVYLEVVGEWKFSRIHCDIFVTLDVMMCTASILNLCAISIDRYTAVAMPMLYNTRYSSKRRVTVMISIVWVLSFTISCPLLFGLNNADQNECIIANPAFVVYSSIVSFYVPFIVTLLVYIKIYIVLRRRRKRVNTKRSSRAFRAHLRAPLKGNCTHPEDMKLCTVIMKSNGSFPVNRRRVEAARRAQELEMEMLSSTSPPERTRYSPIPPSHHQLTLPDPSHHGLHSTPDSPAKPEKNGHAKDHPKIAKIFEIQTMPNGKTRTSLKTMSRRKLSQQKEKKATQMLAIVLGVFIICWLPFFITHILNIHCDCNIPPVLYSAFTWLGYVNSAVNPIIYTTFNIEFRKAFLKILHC
#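 DiscoveRx PathHunter D2 beta-arrestin cells (2,100/well) attached overnight, then compound-stimulated 90 min at 37 C in HBSS/10 mM HEPES/0.1% Tween-20 buffer; beta-galactosidase complementation read by luminescence after 1 h at ambient temperature. Dopamine 57 uM final (EC100) as control.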
# PINK1 expr mod = A Quantitative High throughput Screen to Identify Chemical Modulators of PINK1 Expression; PINK1 immunofluorescence, high-content cytometry, 24 h; Potency, µM (series often up to 76.6 µM), without a hit: top-dose activation (PINK1 increase), actives largely listed as activators; 410,000 tested, 0.2% active; AID 624263, 2012; active = well fitted activation curve with a large enough effect; inconclusive = small, poorly fitted or top-dose-only effect; inactive = flat fitted curve, though single readings scatter; cell line not stated here;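 further: potency means the concentration at half of the fitted maximal effect; % of control where 0% means no effect; nearly all actives have a fitted effect of over 65% in size; a mitochondrial uncoupler was the plate control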
#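 A stable cell line was treated with compounds at 5 concentrations for 24 hours, with CCCP as control. PINK1 levels and mitochondrial localization were measured by immunofluorescence with mitochondrial, cell and nuclear markers after fixation, read by laser-scanning cytometry.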
# TRPML1 agonist = qHTS for Agonists of the Human Mucolipin Transient Receptor Potential 1 (TRPML1); Mucolipin-1 (Homo sapiens), Q9GZU1; TRPML1-expressing cells, Ca2+ dye fluorescence, FDSS; host cell line not named in the record; reference of the full effect not given here; activation, % (concentration not given with the values); 410,000 tested, 0.12% active; in the data active = activation above about 50%; inconclusive = about 30% to 50%; inactive = below about 30%; further: 0% is about no effect; the text of the record puts the active cut at 80%
# Target sequence (Q9GZU1 whole entry, looked up): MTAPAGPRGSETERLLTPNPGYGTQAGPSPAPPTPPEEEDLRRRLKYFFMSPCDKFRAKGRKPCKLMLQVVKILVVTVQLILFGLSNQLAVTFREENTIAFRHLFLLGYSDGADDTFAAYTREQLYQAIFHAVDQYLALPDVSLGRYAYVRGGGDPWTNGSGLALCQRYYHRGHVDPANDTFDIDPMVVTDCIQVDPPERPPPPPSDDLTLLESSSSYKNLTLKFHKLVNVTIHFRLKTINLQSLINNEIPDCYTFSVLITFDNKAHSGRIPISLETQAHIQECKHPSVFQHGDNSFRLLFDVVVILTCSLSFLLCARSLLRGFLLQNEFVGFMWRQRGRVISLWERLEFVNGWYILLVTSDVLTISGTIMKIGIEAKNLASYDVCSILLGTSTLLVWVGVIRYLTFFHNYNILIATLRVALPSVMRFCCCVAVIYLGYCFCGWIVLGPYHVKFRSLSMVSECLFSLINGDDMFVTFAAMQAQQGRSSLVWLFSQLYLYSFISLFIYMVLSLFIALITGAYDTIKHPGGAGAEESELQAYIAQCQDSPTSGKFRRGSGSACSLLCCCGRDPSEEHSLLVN
#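 Kinetic FDSS Ca2+ read in Tet-induced TRPML1-DL cells (ABD Ca8 dye plus quencher, 45-90 min RT loading): baseline, then compound, then 110 s agonist window; EC80 agonist 54-4 at 4uM final added afterwards for a 110 s antagonist window.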
# TRPML1 blocker = qHTS for Inhibitors of the Human Mucolipin Transient Receptor Potential 1 (TRPML1) | TRPML1-inducible cells, Ca2+ dye fluorescence, FDSS; active compounds read low; inhibition of EC80 agonist-evoked calcium signal | activity change, negative = inhibition, % (concentration not given with the values) | 390,000 tested, 0.02% active; in the data active means activity change below about -50%; inconclusive means about -30% to -50%; inactive means above about -30%;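 further: stimulus is agonist 54-4 at its EC80 concentration; on the % scale 0 is the no-effect control and ±100 the full control effect; the text of the record puts the active cut at -80%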
#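 Calcium fluorescence in TRPML1-DL cells induced overnight with Tet: a 110 s read after compound pin addition, then a 110 s antagonist read after challenge with 54-4 at 4 uM final (EC80).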
# Six1-Eya2 blk = qHTS Assay for Inhibitors of the Six1/Eya2 Interaction; AlphaScreen GST-Six1/His-Eya2 binding, biochemical; active compounds read low; control for the full effect not named in the record; activity change, % (no concentration beside the values); 360,000 tested, 0.56% active; in the data active = activity change below about -65%; inconclusive = about -30% to -65%; inactive = above about -30%; further: on the % scale 0 is the no-effect control and ±100 the full control effect
#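 AlphaScreen with GST-Six1 and His-Eya2 (5X mix: 250 nM and 500 nM), glutathione donor and nickel acceptor beads; buffer 50 mM Tris pH 8.0, 300 mM NaCl, 1 mM TCEP; 1 h at 37 C in the dark.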
# Active calls of the source: *; ? = inconclusive; · = no result given; & = joins results of further samples; [ ] = remark or other dose. Rows were taken by chance; 1% or so of the library scored in one or more.
nr	SMILES	CtBP-E1A blk	D2 agonist	PINK1 expr mod
1	CC(C)NS(=O)(=O)c1ccc(OCC(=O)NC(C)c2ccccc2)cc1 (configuration not stated)	·	-4.0	-1.8%
2	CN(C)CCNC(=O)c1cccc(-c2cnc3c(NC=O)cc(-c4cccs4)cn23)c1	-19	15	-1.4%
3	O=C(O)c1ccccc1-c1csc(-c2ccccc2)n1	6	3.2	-0.1%
4	CCOC(=O)c1c(-c2ccc(C)c(C)c2)csc1NC(=O)C1CC=CCC1C(=O)O (configuration not stated)	-3	0.0	0.8%
5	O=S(=O)(CCN1C=CC(C(F)(F)F)=NCC1)c1ccc(Cl)cc1Cl	-1	-4.7	-0.5%
6	CN(C)S(=O)(=O)c1ccc(Cl)c(NC(=O)CNC2(C)CCS(=O)(=O)C2)c1 (configuration not stated)	-1	-5.3	-1.4%
7	CC1CCc2nc3ccc(S(=O)(=O)N4CCC(C(=O)N5CCCCCC5)CC4)cc3c(C(=O)O)c2C1 (configuration not stated)	-20	6.6	0.1%
8	CCOC(=O)c1cnn(-c2nc(C)cc(C)n2)c1N	-3	-5.9	-0.7%
9	O=S(=O)(Nc1cccc2ccccc12)c1cccs1	3	91*	1.9%
10	CCOC(=O)C(NC(=O)NCc1cccc(C(F)(F)F)c1)(OCC)C(F)(F)F (configuration not stated)	2	-3.3	-0.7%
11	Cc1ccc(C)c(N2CCN(C(=O)Cn3cccc3)CC2)c1	2	-1.2	11%[38.3 µM]
12	Cc1sc(NC(=O)Cc2ccc3c(c2)OCO3)nc1-c1ccc2c(c1)CCN2C(=O)c1ccccc1F	-27	9.3	0.4%

nr	TRPML1 agonist	TRPML1 blocker	Six1-Eya2 blk
1	0.0	-3	-3
2	-0.3	·	-10
3	-0.5	-6	3
4	0.4	-11	-1
5	0.4	-15	17
6	0.9	-5	2
7	1.0	-3	?
8	0.3	4	0
9	4.8	0	1
10	1.0	-24	4
11	0.3	0	-13
12	0.1	-4	-10

# Continuation:
nr	SMILES	CtBP-E1A blk	D2 agonist	PINK1 expr mod
13	C[C@@H]1OC(C2CCCCC2)N(C)[C@H]2C[C@H]3c4[nH]c5ccccc5c4CCN3C[C@@H]12 (some centres not stated)	-19	2.0	30%
14	CSc1cccc(NC(=O)CN(C2CCCCC2)S(C)(=O)=O)c1	0	-4.9	-1.4%
15	CSc1cccc(NC(=O)CN(c2ccccc2)S(=O)(=O)N(C)C)c1	0	-3.9	-0.3%
16	CCc1cnc2c(c1SCc1c(F)cccc1Cl)c(=O)n(C)c(=O)n2C	·	·	-0.6%
17	COc1ccc(-n2nc3c(c2NC(=O)c2cc4ccccc4o2)CS(=O)(=O)C3)cc1	2	0.0	4.9%
18	CC(C)CC(N)c1csc(NC(=O)C(c2ccccc2)c2ccccc2)n1 (configuration not stated)	-24	-1.7	-0.9%
19	CCOCc1nnc(NC(=O)c2c(-c3ccccc3)noc2C)s1	13	-3.2	3.9%
20	COc1cccc(/C=C2\SC(=S)N(CCCC(=O)Nc3cc(C)on3)C2=O)c1	3	-6.7	?
21	CNc1ncc(C(=O)C(C)(C)C)s1	3	-5.3	0.4%
22	CCOc1ccccc1N1CCN(C(=O)NCc2ccc(C)cc2)CC1	-22	-5.2	0.3%
23	CCCN1C2CCCC1CC(NC(=O)c1ccccc1F)C2 (configuration not stated)	-3	-0.5	0.7%
24	CCCOC(=O)C1=C(C)NC(=O)NC1c1ccc(Br)s1 (configuration not stated)	·	5.1	0.0%

nr	TRPML1 agonist	TRPML1 blocker	Six1-Eya2 blk
13	0.4	·	?
14	-1.1	-5	-2
15	1.9&1.8	0&0	-3
16	1.0	53	·
17	0.6	11	6
18	9.4	·	-7
19	-1.3	-2	5
20	-0.6	8	0
21	-0.3	11	-1
22	-0.4	-8	1
23	-0.1	-3	14
24	1.9	-4	20

# (list continues)
nr	SMILES	CtBP-E1A blk	D2 agonist	PINK1 expr mod
25	CCNC(=O)C1CC(=O)N(Cc2ccc3c(c2)OCO3)C(=Nc2ccc(OCC)cc2)S1 (configuration not stated)	-3	-4.5	5.0%
26	O=C(COC(=O)c1ccccc1NC(=O)c1ccco1)NC1CCS(=O)(=O)C1 (configuration not stated)	-12	-1.7	1.4%
27	Cc1nn(C)c(Cl)c1CN1CCN(C2CCCCC2)C(CCO)C1 (configuration not stated)	0	-1.4	0.6%
28	NS(=O)(=O)c1ccc(N2CCN(C(=O)c3ccco3)CC2)nc1	·	12	0.7%
29	Cc1csc(NC(=O)C2CCC(C)(C(=O)O)C2(C)C)n1 (configuration not stated)	8	-4.8	-1.4%
30	Cc1ccc(NC(=O)CN2CCN(Cc3ccccc3)CC2)cc1F	-1	-1.7	6.3%
31	O=C(NNC(=O)C1CC(c2cccs2)=NO1)NC1CCCCC1 (configuration not stated)	4	-4.2	3.3%
32	Cc1nc2cc(NS(=O)(=O)c3cccc4cccnc34)ccc2s1	13	6.9	-1.8%
33	CC(C)N(CCNC(=O)c1ccc(NC2=NC3CS(=O)(=O)CC3S2)cc1)Cc1ccco1 (configuration not stated)	6	-0.6	3.0%
34	C/C(=N\NC(=S)NC1CCCCC1)c1c(F)cccc1F	-2	-3.2	5.2%
35	Cc1ccc(F)cc1NC(=O)c1sc2ncn(CC(=O)N3CCN(c4ccccn4)CC3)c(=O)c2c1C	·	-5.0	-0.2%
36	CN(C)c1ccc(/C=N/c2cc(-c3ccccc3)nn2-c2ccccc2)cc1	?	-2.4	11%

nr	TRPML1 agonist	TRPML1 blocker	Six1-Eya2 blk
25	-0.9	10	2
26	-0.3	9	-10
27	-0.2	56	6
28	-0.4	10	-2
29	-1.1	-4	0
30	0.2	19	2
31	-1.2	-3	8
32	0.2	42	1
33	0.0	8	3
34	0.6	-3	-17
35	0.8	-4	3
36	-0.3	-2	?

# Additional records:
nr	SMILES	CtBP-E1A blk	D2 agonist	PINK1 expr mod
37	N=c1c2c(-c3ccccc3)c(-c3ccccc3)n(Cc3ccco3)c2ncn1Cc1ccco1	-27	-14	-1.2%
38	CC(C)c1ccc2c(c1)CCC1C(C)(CN)CCCC21C (configuration not stated)	6	1.2	-3.8%
39	COCCc1nc2ccc(C(=O)N(C)Cc3cccc(-n4cccn4)c3)cc2o1	-13	0.9	1.6%
40	CC(=O)Nc1cc2c(cc1Br)OCCO2	-12	-3.1	1.0%
41	COc1ccccc1CNC(=S)NCc1ccc(Cl)cc1	?	-5.4	0.8%
42	Cc1ccccc1-c1nc2ccc(Cl)cc2c(=O)n1O	·	-0.6	0.3%
43	CCCCN(C(=O)CSCC(=O)Nc1ccc(C)cc1)c1c(N)n(Cc2ccccc2)c(=O)[nH]c1=O	-16	0.6	0.8%
44	Cc1ccc(OCCNC(=O)CCC(=O)N2CCOCC2)cc1	7	-2.8	-2.4%
45	COc1ccc(CN2CCCC(C(=O)c3ccc(Cl)cc3)C2)cc1Cn1cccn1 (configuration not stated)	-13	0.1	2.3%
46	CCN(CC)CCCNC(=O)c1cn(CC(C)C)c(=O)c2c1c1ccccc1n2C	2	0.5	0.3%&0.2%
47	O=C(Nc1ncc2c(n1)CC(c1ccco1)CC2=O)c1ccc(Cl)cc1 (configuration not stated)	-12	0.6	-1.0%
48	CCN(CC)S(=O)(=O)c1ccc(NC(=O)c2ccccn2)cc1	-1	0.5	-0.6%

nr	TRPML1 agonist	TRPML1 blocker	Six1-Eya2 blk
37	13	46	-28
38	-0.1	-1	17
39	0.8	6	-1
40	-0.7	3	15
41	-0.1	-8	5
42	1.8	19	6
43	0.0	-9	-1
44	-0.1	-10	-2
45	1.0	27	-13
46	-0.5&0.8	9&18	2
47	-1.3	4	-5
48	0.0	-11	2

# Other compounds.
nr	SMILES	CtBP-E1A blk	D2 agonist	PINK1 expr mod
49	O=C(CN1C(=O)COc2ccccc21)NCC1CCCO1 (configuration not stated)	0	-5.5	0.7%
50	COc1ccc(-c2cc3ccc(OCc4nn[nH]n4)cc3oc2=O)cc1OC	-4	0.4	·
51	CCCCOc1ccc(NC(=S)Nc2cc(C)nc(SCCCC)n2)cc1	21	0.1	6.0%
52	CCN(CC(=O)NCc1ccc(Cl)cc1)C(=O)CSc1ccccc1F	0	-4.7	-1.2%
53	O=C(CSc1nnc(CNC(=O)c2c(F)cccc2Cl)o1)NC1CCCCC1	0	-1.7	-0.2%
54	O=C(N/N=C\c1ccc(F)cc1)c1csnn1	-4	-11	1.4%
55	Cc1cc2nc(-c3cccc(Cl)c3)c(Cc3ccsc3)n2c(C)c1Br	1	·	?
56	COC(=O)c1sc(SC)nc1N	0	3.0	2.7%
57	CC(C)(C)OC(=O)N1CCC(c2c(C(=O)Nc3ccc4c(c3)OCCO4)cnn2-c2ccc(Cl)cc2)CC1	·	·	1.8%
58	O=[N+]([O-])c1ccc(CSc2ncnc3c2ncn3[C@@H]2O[C@H](CO)[C@@H](O)[C@H]2O)cc1	3	-1.8	-0.6%
59	CCN(CC)C(=S)Sc1c(-c2ccccc2)c2cc(Cl)ccc2[nH]c1=O	-11	-5.5	0.9%
60	CCOc1ccc(C(=O)Nc2ncccc2Cl)cc1	·	-2.0	1.3%
61	Cc1ccc(-c2noc(-c3ccccc3NC(=O)C3CC(=O)N(c4cccc(C)c4)C3)n2)cc1 (configuration not stated)	·	·	0.6%
62	CCOC(=O)N1CCN(c2c(-c3ccc(C)c(C)c3)c(=O)c2=O)CC1	4	2.5	0.1%

nr	TRPML1 agonist	TRPML1 blocker	Six1-Eya2 blk
49	0.0	-4	5
50	-0.5	-10	-6
51	1.6	2	4
52	-0.4	10	0
53	-0.7	4	2
54	-0.2	-9	-4
55	0.1	·	-3
56	0.1	1	2
57	3.4	-3	·
58	-0.6	-5	0
59	1.6	43	-3
60	0.6	-11	0
61	-0.6	20	·
62	1.5	11	-1

# Of the compounds above, two have a CF3 group.
nr	SMILES	CtBP-E1A blk	D2 agonist	PINK1 expr mod
5	O=S(=O)(CCN1C=CC(C(F)(F)F)=NCC1)c1ccc(Cl)cc1Cl	-1	-4.7	-0.5%
10	CCOC(=O)C(NC(=O)NCc1cccc(C(F)(F)F)c1)(OCC)C(F)(F)F (configuration not stated)	2	-3.3	-0.7%

nr	TRPML1 agonist	TRPML1 blocker	Six1-Eya2 blk
5	0.4	-15	17
10	1.0	-24	4

# 3 entries out of the list, sorted by molar mass, ascending:
nr	SMILES	CtBP-E1A blk	D2 agonist	PINK1 expr mod
49	O=C(CN1C(=O)COc2ccccc21)NCC1CCCO1 (configuration not stated)	0	-5.5	0.7%
51	CCCCOc1ccc(NC(=S)Nc2cc(C)nc(SCCCC)n2)cc1	21	0.1	6.0%
58	O=[N+]([O-])c1ccc(CSc2ncnc3c2ncn3[C@@H]2O[C@H](CO)[C@@H](O)[C@H]2O)cc1	3	-1.8	-0.6%

nr	TRPML1 agonist	TRPML1 blocker	Six1-Eya2 blk
49	0.0	-4	5
51	1.6	2	4
58	-0.6	-5	0
